Assay outcomes (PubChem)
MgrA DNA FP = alters Staphylococcus aureus MgrA binding to DNA; fluorescence polarization; inhibition, %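 (about 10 µg/mL by stock and volumes)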; 84,000 tested, 0.13% active; AID 602314;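 active = above 50% in either of two replicates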;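 note: 0% = protein plus DNA without compound and 100% = DNA alone without protein; higher means less MgrA bound to DNA so lower polarization; one replicate is shown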
Sa helicase inh = blocks Staphylococcus aureus DNA helicase; purified S. aureus helicase, fluorescence unwinding assay; about half of the hits fall short of the stated cut; inhibition, %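 (tested at about 80 µM)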; 120,000 tested, 0.05% active; AID 485395;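 active = both duplicates at 50% or more, or one of them with a favoured structure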;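 note: 0% = mean of negative control wells and 100% = mean of positive control wells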
Active calls of the source: *; nt = no result given; & = joins results of further samples.

MgrA DNA FP	Sa helicase inh	SMILES
nt	-13	CC(=O)NC(C)c1nc2ccccc2n1CC(=O)Nc1cccc(C)c1C (stereo unspecified)
nt	-10	CCCCCC(=O)Nc1ccc(C(=O)COC(=O)c2cccnc2N2CCCC2)cc1
nt	-11	O=C(NCCCN1CCCC1=O)Nc1ccc(Cl)cc1
nt	5	O=C(c1oc(=O)c2ccccc2c1-c1ccccc1)N1CCOCC1
0.4	5	Nc1nnnn1/N=C/c1ccccc1O
-2.5	nt	Nc1cc(Cl)ccc1C(=O)N1CCSCC1
nt	6	CCCC(C(=O)Nc1nccs1)c1ccccc1 (stereo unspecified)
-3.1	-7	Cn1cccc1CNC1CCCCCCC1
-2.1	9	Cc1cc2c(c(=O)o1)C(c1ccc(C(F)(F)F)cc1)C(C(=O)OC(C)C)=C(N)O2 (stereo unspecified)
nt	9	COc1ccc(CCNC(=O)Cn2c(=O)c3sccc3n(CC(=O)N3CCCCC3C)c2=O)cc1OC (stereo unspecified)
-2.0	11	CC1CCN(S(=O)(=O)c2cccc(C(=O)N3CCN(c4ccc(F)cc4)CC3)c2)CC1
0.4	nt	O=C1Nc2ccc(F)cc2C1=Nc1ccc(Cl)cc1
nt	4	Cc1csc(=O)n1CC(=O)OCC(=O)Nc1ccccc1
1.0	nt	CCCS(=O)(=O)C1=C(N)OC(c2ccccc2)=C(C#N)C1c1ccccc1 (stereo unspecified)
1.4	27	COc1ccc(C(=O)N/C(=C\c2cccc3ccccc23)C(=O)N2CCN(C)CC2)cc1
-2.5	nt	CCC(=O)NNc1ccccc1
30	nt	COc1ccc2c(c1)CCc1sc(/N=C/c3ccc(C(F)(F)F)cc3)nc1-2
-1.8	nt	c1cc(N2CCOCC2)ccc1NC1=NCCS1
nt	1	CC(Sc1nnc(Nc2ccccc2F)s1)C(=O)Nc1ccccc1 (stereo unspecified)
0.5	17	CCc1ccc(-c2nc(CSCC(=O)NC3CC3)c(C)o2)cc1

Entries above that have a carbonyl joined to an NH by a bond outside any ring (10):
MgrA DNA FP	Sa helicase inh	SMILES
nt	-13	CC(=O)NC(C)c1nc2ccccc2n1CC(=O)Nc1cccc(C)c1C (stereo unspecified)
nt	-10	CCCCCC(=O)Nc1ccc(C(=O)COC(=O)c2cccnc2N2CCCC2)cc1
nt	-11	O=C(NCCCN1CCCC1=O)Nc1ccc(Cl)cc1
nt	6	CCCC(C(=O)Nc1nccs1)c1ccccc1 (stereo unspecified)
nt	9	COc1ccc(CCNC(=O)Cn2c(=O)c3sccc3n(CC(=O)N3CCCCC3C)c2=O)cc1OC (stereo unspecified)
nt	4	Cc1csc(=O)n1CC(=O)OCC(=O)Nc1ccccc1
1.4	27	COc1ccc(C(=O)N/C(=C\c2cccc3ccccc23)C(=O)N2CCN(C)CC2)cc1
-2.5	nt	CCC(=O)NNc1ccccc1
nt	1	CC(Sc1nnc(Nc2ccccc2F)s1)C(=O)Nc1ccccc1 (stereo unspecified)
0.5	17	CCc1ccc(-c2nc(CSCC(=O)NC3CC3)c(C)o2)cc1

(continued)
MgrA DNA FP	Sa helicase inh	SMILES
-0.5	nt	N#Cc1ccc(C=NCCN2CCNC2=O)cc1
nt	-20	Cn1cnnc1Sc1ccc(Cl)cc1NC(=O)c1cc(=O)[nH]c2ccccc12
0.2	-12	COc1cccc(C(=O)NC(C)(C)C)c1OC
-2.1	-3	CC(=O)N1CC(C)Oc2cc(S(=O)(=O)N(C)Cc3ccccc3)ccc21 (stereo unspecified)
1.2	-8	NS(=O)(=O)c1ccc(NC(=O)C2CCCNC2=O)cc1 (stereo unspecified)
nt	-13	COc1ccccc1CNC(=O)CO/N=C/c1cccs1
-7.8	nt	Cc1ccc(-n2cccc2)c(NS(=O)(=O)c2ccc(-c3ccon3)s2)c1
1.6	4	CCOc1ccc(/C=C(\NC(=O)c2ccccc2)C(=O)NC)c2ccccc12
1.3	7	O=c1nc2ccccn2c2c1c(=O)[nH]c1ccccc12
nt	-8	O=C1NC(=Nc2cccc(Cl)c2Cl)S/C1=C/c1ccco1
nt	21	Cc1ccc(C)c(NC(=S)N(C)C)c1
nt	-13&-3	Nc1nc(N)n(-c2ccccc2)n1
nt	7	Cn1c(SCc2ccccc2)nnc1-c1c[nH]c2ccccc12
nt	-8	CCn1cnc2ccc(N3Cc4ccccc4C3=N)cc21
0.0	0	FC(F)(F)c1ccc(C=Nn2c(-c3ccccc3)n[nH]c2=S)cc1
nt	24	N#C/C(=C\c1ccccc1)C(=O)Nc1cccc2c(=O)[nH][nH]c(=O)c12
1.8	nt	CCOc1ccc2sc(C=NCc3ccc(OC)cc3)c(O)c2c1
-1.0	1	CCCNS(=O)(=O)c1c[nH]c(C(=O)OC)c1
15	-80	CCN1C(=O)/C(=C\c2ccc(-c3ccc(Cl)c(C(=O)O)c3)o2)SC1=S
nt	11	CCC(CO)Nc1ncnc2nc[nH]c12 (stereo unspecified)
nt	12	CCc1ccc(C2C(C(=O)O)c3ccccc3C(=O)N2C)cc1 (stereo unspecified)
-3.4&-1.1	nt	CCOc1ccc(NC(C)=O)cc1
nt	1	Cc1ccc(S(=O)(=O)N2CCCC(C(=O)NCc3ccco3)C2)cc1 (stereo unspecified)
-0.1	nt	CC(C)c1ccc(/C=C2\CSc3ccccc3C2=O)cc1
nt	-11	O=C(Nc1ccc(F)cc1)[C@@H]1CCCN1S(=O)(=O)c1ccc(Cl)cc1
-0.9	1	CCCCNS(=O)(=O)c1ccc(OCC(N)=O)cc1
nt	-23	S=C(NCCSc1nnnn1-c1ccccc1)Nc1ccccc1
-2.6	14	CCC(=O)NC(c1c(C)[nH]n(-c2ccccc2)c1=O)(C(F)(F)F)C(F)(F)F
nt	10	CC(CC(=O)NCc1ccccc1)n1cccn1 (stereo unspecified)
nt	20	O=C(COc1ccccc1)Nc1nc(-c2cccs2)cs1
-1.8	nt	COC(=O)C12CCC(=O)C(C(=O)OC)(CCC1=O)C2
nt	16	Cc1csc(NC(=O)C2CCCN2C(=O)Oc2ccccc2)n1 (stereo unspecified)
-0.8	8	Cc1cc(=O)oc2cc(OC(C)C(=O)Nc3nnc(C4CCCO4)s3)ccc12 (stereo unspecified)
nt	-6	CC1CCc2c(sc(NC(=O)CN3C(=O)CCC3=O)c2C(N)=O)C1 (stereo unspecified)
1.1	11	Oc1ccccc1-c1noc(-c2ccccc2O)n1
nt	16	CCCCn1ccnc1C(=O)c1cccc(S(=O)(=O)N2CC(C)CC(C)C2)c1 (stereo unspecified)
nt	4	Cn1ncc(Br)c1C(=O)Oc1ccccc1Cl
3.8	0	COc1ccc(S(=O)(=O)NNC(N)=S)cc1
0.2	-4	CC(C)(C)S(=O)(=O)c1cccc(S(=O)(=O)C(C)(C)C)c1
-1.9	2	Cc1ccc(C)n1-c1ccc(C(=O)OCC(=O)c2ccc(Cl)cc2)cc1
-8.3	-3	O=C(O)c1cccc(N=Cc2ccc(N3CCOCC3)cc2)c1
-2.6	nt	O=C(CSc1nc2sc3c(c2c(=O)n1-c1ccccc1)CCCC3)NCCCO
nt	8	O=c1c2ccccc2cnn1-c1ccc(F)cc1F
-1.0	nt	NC(=S)c1ccc(C(F)(F)F)cc1Cl
-2.5	15	CC(NS(=O)(=O)c1ccc(Cl)cc1)C(c1cccs1)N1CCN(C)CC1 (stereo unspecified)
-1.4	-23	CC(=O)Nc1ccc(C(=O)OCC(=O)Nc2ccc(C)cc2)cc1
-2.6	14	COc1ccc(C(=O)O)s1
-2.8	nt	CC(=O)OCC(=O)c1ccc(C(F)(F)F)cc1
0.9	11	COC(=O)CN(c1ccccc1)S(=O)(=O)c1ccc(C)cc1
-0.2	nt	Nc1n[nH]c(-c2ccccc2)c1-c1ccccc1

Carrying on.
MgrA DNA FP	Sa helicase inh	SMILES
nt	0	N#CCn1ccn(-c2cccc3ccccc23)c(=O)c1=O
nt	-3	O=C(O)CCN(Cc1ccccc1)S(=O)(=O)c1cccs1
nt	-5	Cn1c(=O)c2ccccc2n2c(CN3C(=O)NC4(CCCc5sccc54)C3=O)nnc12 (stereo unspecified)
0.4	12	O=C(NC1CCCC1)c1cc(-c2ccc(Br)cc2)on1
0.2	-12	COc1ccccc1-c1nn(CNc2ccccc2)c(=S)o1
1.0	5	C=CCSC1=C(C#N)C(c2ccccc2C)CC(=O)N1 (stereo unspecified)
2.8	2	Cc1cccc(NC(=O)CN(C2=NC3CS(=O)(=O)CC3S2)c2ccccc2)c1 (stereo unspecified)
-0.2	nt	Nc1nc(Br)c2c(F)cccc2c1-c1ccccc1
0.8	nt	CN(NS(=O)(=O)c1ccc(Cl)cc1)c1cnn(C)c(=O)c1Cl
nt	7	CC(=O)N1C(=O)c2cccc3cccc1c23
nt	-21	CC12CC(c3ccccc3O1)C(S(=O)(=O)c1ccccc1)C(=O)N2 (stereo unspecified)
-0.6	nt	O=C(Oc1ccc(Cl)cc1)c1ccc2nonc2c1
nt	21	CCCOc1ccccc1C1NC(=O)NC(C)=C1C(=O)OCC1CCCCC1 (stereo unspecified)
nt	31	CC1=C(C(=O)N2CCOCC2)C(c2cc(Cl)ccc2OC(F)F)n2c(nc3ccccc32)N1 (stereo unspecified)
-0.9	6	CCOc1ccc(NC(=O)c2c(OC)cccc2OC)cc1
-0.3	-2	O=C1C2CC=CCC2C(=O)N1CCc1nc(-c2ccccc2)no1 (stereo unspecified)
3.4	21	CCCCS(=O)(=O)Nc1ccc2ncn(C)c(=O)c2c1
nt	-3	O=C1CCCN1c1ccc(S(=O)(=O)Nc2c(NC3CCCCC3)c3ccccc3oc2=O)cc1
-0.3	-4	O=C(OCc1ccccc1)c1ccc(O)cc1
nt	7	O=C(O)CC1C(=O)NN=C2c3ccccc3N=CN21 (stereo unspecified)
-1.8	5	COc1ccc(N2CCN(CNC(=O)c3ccccc3)CC2)cc1
nt	-16	Cc1cc2c(cc1C)NC(CC(=O)NCc1ccccc1)C(=O)N2 (stereo unspecified)
-1.1	nt	N#Cc1cccc(C#N)c1Sc1ccc(Cl)cc1
nt	-9	CCC(C)C(NC(N)=O)C(=O)Nc1ccc(S(=O)(=O)Nc2ccc(OC)cc2)cc1 (stereo unspecified)
-1.1	nt	Nc1nnc(SCc2c(Cl)cccc2Cl)s1
-0.1	15	CCOC(=O)N1CCN(CC(O)COc2c(OC)cccc2OC)CC1 (stereo unspecified)
0.0	-18	CC(Oc1ccccc1)C(=O)N1CCN(C(=O)C(C)Oc2ccccc2)CC1 (stereo unspecified)
-0.5	nt	Cc1ccc(CSc2ncnc3onc(C)c23)cc1
4.2	nt	O=C1C=C(SCC(=O)c2ccccc2)SC(c2ccc(Cl)cc2)C1 (stereo unspecified)
-7.2	14	CC1CCCCN1C(=O)CSc1nnc(C2CCCCC2)o1 (stereo unspecified)

Copied from the entries so far, 6 compounds:
MgrA DNA FP	Sa helicase inh	SMILES
-1.1	nt	Nc1nnc(SCc2c(Cl)cccc2Cl)s1
-0.1	15	CCOC(=O)N1CCN(CC(O)COc2c(OC)cccc2OC)CC1 (stereo unspecified)
0.0	-18	CC(Oc1ccccc1)C(=O)N1CCN(C(=O)C(C)Oc2ccccc2)CC1 (stereo unspecified)
-0.5	nt	Cc1ccc(CSc2ncnc3onc(C)c23)cc1
4.2	nt	O=C1C=C(SCC(=O)c2ccccc2)SC(c2ccc(Cl)cc2)C1 (stereo unspecified)
-7.2	14	CC1CCCCN1C(=O)CSc1nnc(C2CCCCC2)o1 (stereo unspecified)

Further structures
MgrA DNA FP	Sa helicase inh	SMILES
1.5	nt	N#C/C(=C\c1ccc(C2=CCOc3ccccc32)s1)S(=O)(=O)c1ccccc1
1.1	1	CCN(CC)S(=O)(=O)c1ccc(C(=O)NCCSc2c[nH]c3ccccc23)cc1
nt	-5	Cc1ccc(/C=C/C(=O)OC(C)C(N)=O)o1 (stereo unspecified)
2.1	2	C=CCNC(=S)Nn1c(C)nnc1-n1nc(C)cc1C
nt	17	CCC1CCCCN1C(=O)c1cnn(-c2ccc(C)cc2)c1-n1cccc1 (stereo unspecified)
-2.3	14	CC1(C)CC(=O)c2sc(NC(=O)CCCc3ccccc3)nc2C1
nt	7	N#CCSc1nc(-c2ccccc2)c(-c2ccccc2)o1
nt	9	CCOC(=O)CN1CCOc2ccccc21
nt	12	CCOC(=O)C1=C(C)NC2=C(C(=O)C(C(=O)OC)C(C)C2)C1c1cccc(OC)c1OC (stereo unspecified)
-0.9	-6	C/C(=C\C(=O)c1ccccc1)Nc1ccc(N2CCOCC2)cc1
nt	24	CCOC(=O)c1ccccc1NCn1nnc2ccccc21
-1.6	nt	CCOC(=O)c1cncc(C#CCOC(=O)c2ccc(Cl)cn2)c1
-19	9	CC(=O)OC(C(=O)NC1CCCCC1)c1ccccc1 (stereo unspecified)
0.4	nt	O=C(Nc1n[nH]c(-c2ccccc2)c1Br)c1ccc(Cl)cc1
nt	6	CCn1c(C)cc2c(c1=O)C(C(C)C)C(C#N)=C(N)O2 (stereo unspecified)
nt	-33	O=C(NOC(=O)c1cccs1)c1ccccc1
1.2	nt	Cc1onc(-c2c(F)cccc2Cl)c1C(O)c1ccc(F)cc1 (stereo unspecified)
-2.9	nt	O=C(NC1CCN(Cc2ccccc2)CC1)c1ccc(Cl)cc1
nt	17	O=C(Nc1ccccc1Cl)C1CCC1
0.8	8	Cc1ccccc1C(=O)NC(=S)N1CCC(C)CC1
-1.5	nt	Nc1cccc(F)c1-c1nc(-c2ccncc2)n[nH]1
-2.1	nt	CN1c2ccsc2C(=O)/C(=C\Nc2ccccc2Cl)S1(=O)=O
-1.9	1	Cc1cc(-c2ccc(F)cc2)nc2cc(C(=O)Nc3ccccc3C(F)(F)F)nn12
nt	-7	O=C(CSc1n[nH]c(-c2ccc(Br)cc2)n1)N1CCCC1
nt	0	O=C(O)COc1cccc(NC(=O)c2ccccc2)c1

Some of the compounds tested; rates above refer to the full screens.
